Source: PubChem (several laboratories)
Sa RN4220 lethal: kills Staphylococcus aureus RN4220. S. aureus RN4220 growth, OD600, 16 h. inhibition, % (concentration not given with the values). 330,000 tested, 0.33% active. AID 1259311;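 active means z-score of -3 or lower and OD600 up to 0.18 on both plates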;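 further: plate controls were untreated cells for no effect and reference antibiotic for full effect; stock transfer was 100 nL into about 80 µL; one replicate is shown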
PrP 5UTR inh: inhibition of PrP 5' UTR reporter expression | inhibition, % (no concentration beside the values) | cell-based PrP 5' UTR mRNA reporter, plate reader | 340,000 tested, 0.35% active;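 active means every replicate at 50% or more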;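 further: 0 = median of the neutral control wells; tested in H4 reporter cells; numbers are from one replicate; inactives centre near -14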
ugtP null kill: growth inhibition of S. aureus ugtP deletion strain | S. aureus RN4220 ugtP deletion, OD600 growth, 16 h; some inactives read as strong as hits | growth inhibition, % (no concentration beside the values) | 330,000 tested, 0.54% active;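 active means z-score under -3 and OD600 up to 0.15 on both plates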;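 further: plate controls were untreated wells for no effect and antibiotic for full effect; wells of about 80 µL received 100 nL stock; the first replicate is given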
Bead autofluor: flagged as autofluorescent in microsphere protease counterscreen; 360,000 tested, 3.1% active; fluorescence intensity (no concentration beside the values); AID 624483; compound autofluorescence counterscreen, microsphere flow cytometry; active compounds read high;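 active means at least 3 SD above the mean of all compounds, about 16000 in these data; inconclusive means too few beads counted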;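 further: 100 nL of 1 mM stock went into each well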
BJeLR lethal: BJeLR cell viability loss. BJeLR (HRASV12) viability, CellTiter-Glo ATP luminescence, 48 h; reference of the scale not given here. inhibition, % (concentration not given with the values). 300,000 tested, 0.17% active;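 active means replicate mean above 50%; inconclusive means above 50% but judged a plate artefact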;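 further: 50 nL library stock added to about 25 µL; numbers are from one replicate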
Mtb hypoxia inh: inhibitors of hypoxia-regulated fluorescent reporter in Mycobacterium tuberculosis; 300,000 tested, 0.1% active; AID 1159583; M. tuberculosis hypoxia-regulated fluorescent reporter, fluorescence; fluorescence inhibition, % (no concentration beside the values);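 active means 35 to 45% if threefold the growth effect, above 45% if 1.5-fold the growth effect; inactive means the rest, general growth blockers included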;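 further: wells of about 50 µL received 100 nL stock; 0% = vehicle wells and 100% = reference inhibitor wells; whole bacteria with a GFP reporter of the hypoxia response; strong numbers were not always called active; many hits fall short of the cut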
Mtb hypoxia inh growth: recorded beside Mtb hypoxia inh, whose call it bears; growth inhibition, %; measured here: M. tuberculosis growth (absorbance);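 0% = vehicle and 100% = reference antibiotic; read after six days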
* marks the source's active call; other numbers are inactive results; u = inconclusive; x = not tested or not shown.

Every second line gives: BJeLR lethal	Mtb hypoxia inh	Bead autofluor	ugtP null kill	Sa RN4220 lethal	Mtb hypoxia inh growth	PrP 5UTR inh
- CCN1CCN(c2ccc(S(=O)(=O)N3CCCCC3)cc2NC(=O)c2ccc([N+](=O)[O-])s2)CC1
→ 9	10	5695	3	12	8	-14
- Cc1ccc(S(=O)(=O)N2[C@@H](c3ccc(C(C)(C)C)cc3)C(C(=O)O)=CC[C@H]2c2cccc(Cl)c2)cc1
→ x	-8	3726	-8	11	-1	-4
- Cc1c(C(N)=O)sc2nc(-c3ccccc3)cn12
→ 1	3	8254	-18	5.7	-3	-35
- COc1ccc(-c2ccc(/C=C3/C(=N)N4C=CSC4=NC3=O)o2)c([N+](=O)[O-])c1
→ -3	-1	10377	94*	21	-2	-43
- CC[C@]12c3[nH]c4cc(-c5ccco5)ccc4c3CCN1C(=O)[C@@H](CC(=O)NCCN1CCOCC1)C[C@@H]2C(=O)N1CCN(C(=O)c2ccco2)CC1
→ x	1	3444	2	2.9	4	4
- COCCN(CC(=O)NCc1ccccc1)C(=O)CCC(=O)Nc1nccs1
→ 0	x	4937	4	-1.4	x	-21
- COc1ccc(-c2nnc(SCC(=O)NCCc3ccc(S(N)(=O)=O)cc3)o2)cc1OC
→ -7	-2	5304	3	2.2	4	-23
- CS(=O)(=O)C1=NSC2=NC(=O)/C(=C\c3cccn3-c3ccc(Cl)cc3)C(=N)N21
→ 7	7	2987	-1	6.9	3	-7
- CCN(CC)c1ccc(C=NNC(=O)CNC(=O)c2cccnc2)cc1
→ x	x	x	5	2.5	x	x
- COc1ccc(CNC(=O)c2nc(S(=O)(=O)Cc3ccccc3)ncc2Cl)cc1
→ 23	0	5808	21	21	0	0
- O=C(COc1ccc(Cl)cc1Cl)N(Cc1ccco1)C1CCS(=O)(=O)C1 (configuration not stated)
→ -1	4	6571	1	4.5	10	-30
- CCCc1[nH]n(-c2nc3ccccc3s2)c(=O)c1C=NCCCN(CC)CC
→ 2	15	4725	5	6.8	7	-42
- CC(C)(C)OC(=O)[C@H](Cc1ccccc1)NC(=O)c1nc[nH]c1C(=O)NCc1ccccc1
→ 5	x	3872	x	x	x	-14
- COc1ccc(C(=O)Nc2ccc(C(=O)N3CCCCC3)cc2)cc1OC
→ -2	9	4629	4	1.0	10	-7
- O=C1N/C(=N\N=Cc2ccc3ncccc3c2)SC1Cc1ccc(SC(F)F)cc1 (configuration not stated)
→ x	14	x	-21	-2.2	30	x
- CCOC(=O)c1nn(-c2cccc(C)c2)cc1C(=O)c1ccccc1
→ 7	13	16058	-6	9.7	1	-13
- CC(C)(C)C(=O)NCC12C=CC(O1)C1C(=O)N(c3ccccc3)C(=O)C12 (configuration not stated)
→ 11	9	10713	6	1.2	-5	-26
- CC(O)[C@H]1CNC(=S)N1CCc1cccc(F)c1 (some centres not stated)
→ 10	x	3995	x	x	x	-25
- Cc1cc(C(=O)NN=Cc2ccccc2)c(C)o1
→ x	5	x	6	1.7	13	x
- CN(C)C=Nc1sc2c(c1C#N)CC(C)(C)NC2(C)C
→ x	3	x	1	2.8	5	x
- CCOC(=O)Nc1ccc(C)cc1C
→ 0	12	3594	8	1.7	0	-29
- C#CCOc1ccc(/C=C2\SC(=S)N(Cc3cccnc3)C2=O)cc1
→ 9	7	1986	-27	0.7	18	-18
- O=C(Nc1cccc(-c2cccc(F)c2)c1)C1CCN(Cc2ccc(CO)o2)CC1
→ 3	3	5786	-8	1.0	9	0
- COc1ccc(C(=O)CSc2nc(C)cc(=O)[nH]2)cc1C
→ 2	-8	3935	10	2.9	2	6
- COc1nc(N)nc(N2CCOCC2)n1
→ 7	x	4594	3	0.8	x	-1
- O=C(c1ccc(F)cc1)c1cc2ccc(O)cc2oc1=O
→ 17	-4	3011	3	0.9	3	-12
- CCN(Cc1ccccc1)C(=O)CN1C(=O)NC2(CC(C)CC(C)(C)C2)C1=O (configuration not stated)
→ 1	13	5931	-2	-0.3	10	-18
- COc1ccc(CNS(=O)(=O)c2ccc(C3CNC(=O)C3)cc2)cc1 (configuration not stated)
→ 1	-6	6335	-6	-0.6	1	-6
- Cn1[nH]c(-c2ccccc2)c(/C=N/O)c1=O
→ -1	x	4260	x	x	x	-12
- COc1ccc(NC(=O)c2ccccc2)cc1
→ x	25	2602	2	4.3	20	-30
- CC(=O)c1ccc(N2CCN(C(=O)/C=C/c3cccs3)CC2)cc1
→ -6	12	3538	8	14	4	-20
- NC(=O)CSc1nnnn1-c1ccc(OC(F)(F)F)cc1
→ -4	-13	23160*	0	0.6	-3	1
- COC(C(=O)N/N=C(\C)c1ccc(C(C)(C)C)cc1)c1ccccc1 (configuration not stated)
→ 1	x	4863	x	x	x	-34
- Fc1ccc(CCNC(=S)Nc2ccc(F)cc2)cc1
→ 0	14	8440	2	-1.9	15	-38
- Cc1ccc(/C=N\NC(=O)c2cc(OCC(F)(F)F)ccc2OCC(F)(F)F)cc1
→ -5	x	4390	x	x	x	-6
- O=C(CSc1cc(Cl)ccc1Cl)NCCN1C(=O)CSC1=O
→ x	8	4216	-1	1.2	3	-26
- CC(C)(C)c1nc(SCC(=O)NCc2cccs2)c2ccccc2n1
→ 6	6	4245	10	1.0	17	-21
- C[N+](C)(C)CC#CCN1CCCC1=O
→ 7	4	5543	1	4.1	3	-23
- O=C(NCc1cccs1)c1ccccc1F
→ 9	x	2489	-4	-7.4	x	-13
- CC1(C)CC(=O)C=C(Nc2cccc(C(F)(F)F)c2)C1
→ -2	-2	x	-4	0.9	14	x
- O=C(CN1CCN(c2ccccc2F)CC1)NC(=O)NCc1ccccc1
→ 2	1	4539	-6	-3.4	-1	-11
- COc1ccccc1-c1cc(C(F)(F)F)nc(S(=O)(=O)CCCC(=O)N2CCOCC2)n1
→ 12	x	4718	0	-2.3	x	-19
- CSc1ccc(CN(C)CC(=O)NCc2ccccc2)cc1
→ 4	1	3401	5	3.8	1	-25
- COc1cccc(C(=O)Oc2ccccc2/C=C\C(=O)c2cc3ccccc3o2)c1
→ 11	-3	2115	-14	20	0	-41
- C=CCn1cn[nH]c1=S
→ -3	-4	4457	2	3.4	8	-11
- O=C1NCCN(Cc2ccoc2)C1CC(=O)N(Cc1ccccc1)CC1CCC1 (configuration not stated)
→ -1	7	4640	-12	2.3	22	-28
- O=C(CN1C(=O)c2ccc([N+](=O)[O-])cc2C1=O)NCc1ccco1
→ -5	10	4397	11	2.7	12	-13
- CCOC(=O)c1sc2nc(CSc3ccccc3)[nH]c(=O)c2c1C
→ -2	11	3749	4	12	13	-28
- O=C(O)CCc1ccc(-c2ccc(F)cc2)n1CC(=O)O
→ -3	-1	3395	-6	-0.5	-2	-12
- CCCOc1ccc(-c2cnc(N)s2)cc1
→ 7	5	11383	12	-0.4	10	-83
- Cn1cc(C(=O)NN=Cc2cc(Br)cs2)c2ccccc21
→ x	-13	x	-9	-3.4	-8	x
- COC(=O)c1cc(CC(=O)c2ccc(O)cc2O)c(C)o1
→ -9	3	11443	5	2.5	6	-15
- O=S(=O)(c1ccc(Cl)cc1)N1CCN(c2ccccn2)CC1
→ -6	8	3973	8	4.7	2	-23
- Cc1sc2nc(SCC(=O)N3CC(C)OC(C)C3)n(C)c(=O)c2c1C (configuration not stated)
→ -9	5	5404	-4	1.7	-3	-19
- O=C(O)c1cccnc1Sc1ccc(Cl)cc1
→ 6	15	3341	7	8.8	5	-21
- O=C(NCc1ccccc1)C1CCCN(C(=O)NCc2ccccc2)C1 (configuration not stated)
→ -9	10	3794	3	0.8	3	-21
- CCOc1ccc(-c2cc(C(=O)N/N=C/c3cccnc3)c3ccccc3n2)cc1
→ 24	x	5432	x	x	x	-39
- COc1cc(C)c(S(=O)(=O)N2CCCC2)cc1C
→ 1	x	2745	1	1.1	x	-16
- Cc1cc(C)c(S(=O)(=O)N(CC(=O)NCc2cccnc2)C2CCCCC2)c(C)c1
→ -3	0	4428	-3	1.3	-2	-15
- CCOC(=O)c1cn(-c2c(Cl)cccc2Cl)c2cc(Cl)c([N+](=O)[O-])cc2c1=O
→ -11	-5	2032	80	3.1	2	10

Single records, from the list above. Screens in order: BJeLR lethal	Mtb hypoxia inh	Bead autofluor	ugtP null kill	Sa RN4220 lethal	Mtb hypoxia inh growth	PrP 5UTR inh
`Cc1ccc(/C=N\NC(=O)c2cc(OCC(F)(F)F)ccc2OCC(F)(F)F)cc1` is listed with -5	x	4390	x	x	x	-6
`Fc1ccc(CCNC(=S)Nc2ccc(F)cc2)cc1` is listed with 0	14	8440	2	-1.9	15	-38

More entries follow:
Every second line gives: BJeLR lethal	Mtb hypoxia inh	Bead autofluor	ugtP null kill	Sa RN4220 lethal	Mtb hypoxia inh growth	PrP 5UTR inh
- CCn1cc(C(=O)N2CCN(c3cccc(Cl)c3)CC2)c2cc(OC)c(OC)cc2c1=O
→ 2	1	9431	9	10.0	2	-3
- CC(C)CC1c2[nH]c3ccccc3c2CCN1C(=O)C1CCOCC1 (configuration not stated)
→ -7	-6	4214	-6	0.6	-12	-9
- CS(=O)(=O)N(CC(=O)N1CCC(C(N)=O)CC1)Cc1ccc(Cl)c(Cl)c1
→ -1	7	3452	5	6.2	5	-5
- CCOC(=O)c1cnc(SC)nc1Oc1cccc(NS(=O)(=O)c2ccccc2)c1
→ 0	11	3437	8	4.4	5	-45
- OC1(C#CCN2CCCC2)c2ccccc2-c2ccccc21
→ -2	0	3427	5	1.0	-5	1
- CC1(C)Cc2ccccc2-c2nc(NCCCO)n(-c3ccccc3)c(=O)c21
→ 14	12	9247	10	3.6	2	-10
- CCn1cc(CN2CCCC(CO)(Cc3cccc(Cl)c3)C2)cn1 (configuration not stated)
→ 4	-4	4163	0	0.6	6	1
- COc1ccc(C2/C=C\CN(C(=O)C3CCCC3)CC(=O)N2Cc2ccc(F)cc2)cc1 (configuration not stated)
→ -3	x	2832	x	x	x	3
- O=C(O)CCCN(Cc1cccc(Br)c1)S(=O)(=O)c1ccc(Br)cc1
→ -9	22	4954	4	22	-2	-24
- CC(OC(=O)CN1C(=O)C2C3C=CC(C4CC34)C2C1=O)C(=O)c1ccccc1 (configuration not stated)
→ 4	11	4646	5	1.4	7	-9
- O=C(NCCc1ccccc1)C(=O)NCc1ccncc1
→ -3	12	2595	4	2.9	4	-48
- Fc1ccccc1CNC(=S)Nc1cccc(C(F)(F)F)c1
→ 1	-4	10284	-41	1.1	-3	3
- Cc1cccc(C(=O)NCCc2ccccc2)c1
→ -2	24	3634	9	4.6	29	-38
- COc1ccc(/C=N/NC(=O)Nc2ccc3nsnc3c2)c(OC)c1
→ 8	x	1967	x	x	x	-25
- COc1ccc(/C=C/C(=O)Nc2ccc(S(=O)(=O)N3CCOCC3)cc2)c(OC)c1
→ x	6	5263	1	-2.5	9	-16
- CNC(=O)c1c(NC(=O)CCS(=O)(=O)c2ccc(C)cc2)sc2c1CCN(C(=O)OC)C2
→ -3	-3	u	-7	-2.0	0	-16
- O=C(c1ccc(F)cc1Cl)N(Cc1ccco1)C1CCS(=O)(=O)C1 (configuration not stated)
→ x	0	3534	3	1.2	8	-14
- Cc1cc(NS(=O)(=O)c2ccc(NC(=O)C(C)Oc3ccccc3Cl)cc2)no1 (configuration not stated)
→ -11	8	4494	-1	2.0	-9	-22
- O=C(NC(=S)Nc1ccccc1O)c1ccccc1Cl
→ -6	6	3438	0	10	0	-29
- CN(C)c1ccc(N=Nc2ccccc2C(=O)OCC(=O)NCC2CCCCC2)cc1
→ 4	4	1938	-12	-3.1	8	-14
- CN(CC(=O)Nc1ccc(Cl)c(Cl)c1)Cc1nnc(-c2ccc(F)cc2)o1
→ 7	-10	4309	1	9.0	1	-12
- COc1ccccc1N1CCN(Cc2nc(N)nc(Nc3ccccc3)n2)CC1
→ 3	7	3290	-7	3.2	8	-10
- CN(CC(=O)Nc1ccc2c(c1)OCCO2)Cc1nc2ccccc2c(=O)[nH]1
→ x	3	3635	-2	-0.3	6	-5
- CCCC1(CCC)NC(=O)N(CC(=O)N2CCc3ccccc32)C1=O
→ x	6	6223	1	-1.2	7	-4
- Cc1[nH]n(-c2cccc(Cl)c2)c(=O)c1-c1ccccc1
→ 4	x	4252	18	16	x	-19
- CCCCn1c(SCC(=O)Nc2sc3c(c2C(N)=O)CCC3)nnc1-c1ccccc1
→ -7	2	2358	-10	2.5	11	-19
- O=C(Nc1c(-c2ccccc2)nc2ncccn12)c1cc2ccccc2oc1=O
→ 0	2	5720	13	4.7	4	-28
